Source: PubChem
TRPML1 agonist – human mucolipin-1 channel agonism | Q9GZU1 | AID 624414 | TRPML1-expressing cells, Ca2+ dye fluorescence, FDSS; host cell line not named in the record; reference of the full effect not given here | activation, % (concentration not given with the values) | 410,000 tested, 0.12% active; in the data active = activation above about 50%; inconclusive = about 30% to 50%; inactive = below about 30%; note: 0% is about no effect; the text of the record puts the active cut at 80%
Target sequence (Q9GZU1 whole entry, looked up): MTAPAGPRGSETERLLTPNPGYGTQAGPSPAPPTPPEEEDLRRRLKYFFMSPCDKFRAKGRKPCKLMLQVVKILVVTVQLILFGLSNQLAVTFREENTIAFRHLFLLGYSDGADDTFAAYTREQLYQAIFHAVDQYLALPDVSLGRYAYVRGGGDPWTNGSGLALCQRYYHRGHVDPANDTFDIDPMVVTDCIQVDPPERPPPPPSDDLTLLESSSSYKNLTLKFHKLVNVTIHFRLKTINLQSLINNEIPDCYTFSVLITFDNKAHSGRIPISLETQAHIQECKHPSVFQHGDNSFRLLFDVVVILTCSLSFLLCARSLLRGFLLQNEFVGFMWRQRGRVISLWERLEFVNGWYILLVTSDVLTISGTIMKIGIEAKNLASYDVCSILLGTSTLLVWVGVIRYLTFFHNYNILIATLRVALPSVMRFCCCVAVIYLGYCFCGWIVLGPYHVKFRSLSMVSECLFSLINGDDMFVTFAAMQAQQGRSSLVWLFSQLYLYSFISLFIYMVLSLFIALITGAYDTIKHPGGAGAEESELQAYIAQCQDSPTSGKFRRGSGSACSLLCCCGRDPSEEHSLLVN
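Tetracycline-induced TRPML1-DL cells are seeded and incubated overnight before loading with a no-wash Ca2+ dye and quencher. Agonist activity is taken from the 110 s fluorescence read following compound pin-transfer on an FDSS, before EC80 54-4 challenge.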
PINK1 expr mod – changes PINK1 expression; PINK1 immunofluorescence, high-content cytometry, 24 h; Potency, µM (series often up to 76.6 µM), for inactives: top-dose activation (PINK1 increase), most hits filed as activators; 410,000 tested, 0.2% active; active = well fitted activation curve with a large enough effect; inconclusive = small, poorly fitted or top-dose-only effect; inactive = flat fitted curve, though single readings scatter; cell line not stated here;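 note: potency is the fitted concentration of half-maximal effect; % of control where 0% means no effect; nearly all actives have a fitted effect of over 65% in size; a mitochondrial uncoupler was the plate control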
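Decision-based qHTS: stable cells, 24 h exposure to five compound concentrations, CCCP as control. Fixed cells stained for PINK1 plus nuclear, mitochondrial and cell markers, cytometer read.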
Six1-Eya2 blk – inhibitors of human Six1/Eya2 interaction; activity change, % (test concentration not listed); AlphaScreen GST-Six1/His-Eya2 binding, biochemical; stronger effect = lower value; control for the full effect not named in the record; 360,000 tested, 0.56% active; AID 651725; Q15475+O00167; in the data active = activity change below about -65%; inconclusive = about -30% to -65%; inactive = above about -30%; note: % is set by controls: 0 for no effect and ±100 for the full control effect; compound concentration not given in the record
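Homogeneous AlphaScreen proximity assay pairing GST-Six1 with His-tagged Eya2 (added as 5X mix: 250 nM and 500 nM) in 50 mM Tris pH 8.0, 300 mM NaCl, 1 mM TCEP. Glutathione donor and nickel acceptor beads; 1 h, 37 °C, dark.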
D2 ag – human D2 receptor agonism in beta-arrestin assay | AID 624465 | activation, % (test concentration not listed) | 360,000 tested, 0.084% active | DiscoveRx PathHunter D2 beta-arrestin, luminescence, 90 min; 100% = 57 uM dopamine signal; in the data active = activation above about 40%; inconclusive = about 15% to 40%; inactive = below about 15%; note: compound concentration not given in the record; the text of the record calls up to 30% inactive
Target sequence (P14416 whole entry, looked up): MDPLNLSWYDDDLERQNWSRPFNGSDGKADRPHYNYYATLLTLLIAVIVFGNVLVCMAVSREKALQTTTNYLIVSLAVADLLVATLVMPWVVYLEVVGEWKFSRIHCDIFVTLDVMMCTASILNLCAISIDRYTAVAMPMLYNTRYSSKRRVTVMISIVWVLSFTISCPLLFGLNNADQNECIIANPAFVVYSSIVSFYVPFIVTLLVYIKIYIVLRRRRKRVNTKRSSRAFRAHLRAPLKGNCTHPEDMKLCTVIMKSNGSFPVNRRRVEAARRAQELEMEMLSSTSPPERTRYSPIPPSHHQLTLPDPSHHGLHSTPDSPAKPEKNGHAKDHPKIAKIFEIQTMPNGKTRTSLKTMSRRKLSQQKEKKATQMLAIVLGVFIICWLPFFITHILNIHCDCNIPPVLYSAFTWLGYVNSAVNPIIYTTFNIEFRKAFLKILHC
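DiscoveRx PathHunter D2 beta-arrestin cells (2,100/well) attached overnight, then compound-stimulated 90 min at 37 C in HBSS/10 mM HEPES/0.1% Tween-20 buffer; beta-galactosidase complementation read by luminescence after 1 h at ambient temperature. Dopamine 57 uM final (EC100) as control.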
TRPML1 inh – blocks the human TRPML1 channel; AID 624415; activity change, negative = inhibition, % (test concentration not listed); Q9GZU1; TRPML1-inducible cells, Ca2+ dye fluorescence, FDSS; stronger effect = lower value; inhibition of EC80 agonist-evoked calcium signal; 390,000 tested, 0.02% active; in the data active means activity change below about -50%; inconclusive means about -30% to -50%; inactive means above about -30%;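 note: stimulus is agonist 54-4 at its EC80 concentration; % is set by controls: 0 for no effect and ±100 for the full control effect; compound concentration not given in the record; the text of the record puts the active cut at -80%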
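Tet-induced TRPML1-DL cells loaded with Ca8 no-wash calcium dye were read kinetically on FDSS. Compound addition was followed by EC80 agonist 54-4 (4 uM final); inhibition was read over 110 s.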
CtBP-E1A blk – CtBP/E1A binding inhibition | 340,000 tested, 0.49% active | activity change, % (no concentration beside the values) | AlphaScreen GST-E1A/His-CtBP binding, 1536-well; stronger effect = lower value; control for the full effect not named in the record; in the data active means activity change below about -65%; inconclusive means about -30% to -65%; inactive means above about -30%; note: % is set by controls: 0 for no effect and ±100 for the full control effect; compound concentration not given in the record
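AlphaScreen with 125 nM GST-E1A and 125 nM His-CtBP (5X stocks) in Tris pH 8.0, 300 mM NaCl, BSA, Tween 20, TCEP. Compounds preincubated 2 h at 37 deg C, then glutathione donor/nickel acceptor beads added for 1 h at 37 deg C in dark.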
* hit, by the source's call; ? = inconclusive; . = no result given; & = joins results of further samples; [ ] = dose if it differs, or a comment.

cpd	Molecule	PINK1 expr mod	CtBP-E1A blk	TRPML1 inh	D2 ag	Six1-Eya2 blk	TRPML1 agonist
1	Cc1cc(C)nc(NC(=O)CN2C(=O)c3ccccc3C2=O)n1	3.4%[38.3 µM]	-6	-15	-2.5	0	0.0
2	COc1cc(C)ccc1OCc1cc(C(=O)NC2CCOCC2)no1	0.1%	-12	-4	-0.6	6	-0.2
3	Cc1cccc(Nc2ncccc2C(=O)NCc2cccs2)c1C	4.7%	-3	-8	-2.4	-3	9.6
4	CC1=C(c2ccc(C)c(C)c2)S(=O)(=O)N=C1N1CCC(C(=O)N2CCC(C)CC2)CC1	5.6%	.	0	.	.	3.0
5	c1ccc2c(Oc3ccc4c(c3)OCO4)nncc2c1	0.6%	2	-5	-2.0	6	-0.9
6	COc1ccc(C(=O)OCC(=O)NCC2CCCO2)cc1[N+](=O)[O-] (configuration not stated)	-0.3%	-2	7	3.7	4	3.3
7	Cc1ccc(-n2c(=O)c3oc4ccccc4c3n(CC(=O)Nc3ccccc3)c2=O)cc1C	2.4%	.	3	.	.	-0.2
8	COc1cccc2cc(C(=O)Nc3ccccc3Cl)/c(=N/NS(=O)(=O)c3ccccc3)oc12	0.2%	0	24	1.6	-1	0.4
9	Cc1ccc(SCc2cc(=O)[nH]c(Nc3nc(C)c4ccccc4n3)n2)cc1	5.4%	0	26	-4.7	-4	2.3
10	NS(=O)(=O)c1cccc2cccnc12	2.3%	4	-8	-3.4	-4	0.1

Filtered by structure: the entries above containing a carbonyl joined to an NH by a bond outside any ring
cpd	Molecule	PINK1 expr mod	CtBP-E1A blk	TRPML1 inh	D2 ag	Six1-Eya2 blk	TRPML1 agonist
1	Cc1cc(C)nc(NC(=O)CN2C(=O)c3ccccc3C2=O)n1	3.4%[38.3 µM]	-6	-15	-2.5	0	0.0
2	COc1cc(C)ccc1OCc1cc(C(=O)NC2CCOCC2)no1	0.1%	-12	-4	-0.6	6	-0.2
3	Cc1cccc(Nc2ncccc2C(=O)NCc2cccs2)c1C	4.7%	-3	-8	-2.4	-3	9.6
6	COc1ccc(C(=O)OCC(=O)NCC2CCCO2)cc1[N+](=O)[O-] (configuration not stated)	-0.3%	-2	7	3.7	4	3.3
7	Cc1ccc(-n2c(=O)c3oc4ccccc4c3n(CC(=O)Nc3ccccc3)c2=O)cc1C	2.4%	.	3	.	.	-0.2
8	COc1cccc2cc(C(=O)Nc3ccccc3Cl)/c(=N/NS(=O)(=O)c3ccccc3)oc12	0.2%	0	24	1.6	-1	0.4

The results go on.
cpd	Molecule	PINK1 expr mod	CtBP-E1A blk	TRPML1 inh	D2 ag	Six1-Eya2 blk	TRPML1 agonist
11	COc1ccc(C2=NN(CCC(=O)NC3CCCCC3C)C(=O)CC2)cc1 (configuration not stated)	0.7%	4	6	0.5	-6	1.4
12	Cc1nc(Nc2cccc(Cl)c2)c2oc3ccccc3c2n1	1.2%	3	5	-4.3	2	1.0
13	CCOc1ccc(N(CC(=O)N2CCc3ccccc32)S(=O)(=O)c2c(C)noc2C)cc1	-0.2%	-11	55	-4.6	0	1.2
14	COc1ccc(CCNC(=O)CCNS(=O)(=O)c2ccc3c(c2)CCN3C(C)=O)cc1OC	-1.1%	-1	2	0.9	-2	-1.0
15	O=C(Nc1ccc(F)cc1)c1cc(-c2ccncc2)nc2c(Cl)cccc12	3.9%	-11	11	-0.6	3	-0.3
16	O=C(CNCc1ccco1)Nc1cccc(S(=O)(=O)N2CCCCC2)c1	1.0%	.	4	-5.6	-1	-0.5
17	Cc1ccc(N/C(N)=N/c2nc(CSc3ccc(C)cc3)cc(=O)[nH]2)cc1	11%	6	21	-3.8	1	-0.4
18	COc1ccc(-c2nc(-c3ccccc3)c(-c3cc([N+](=O)[O-])ccc3C)[nH]2)cc1OC	-0.7%	-26	22	-0.5	-29	0.4
19	Cc1cccc(NC(=O)Cn2c(=O)n(Cc3ccc4c(c3)OCO4)c(=O)c3oc4ccccc4c32)c1C	-0.2%	.	-5	.	.	-0.4
20	O=S(=O)(c1ccccc1)c1ccc(N2CCCCCC2)cc1	0.2%	.	3	4.2	2	-0.1
21	O=C(Cc1cc(=O)[nH]c(=O)[nH]1)N1CCC(Cc2ccccc2)CC1	-1.3%	-22	2	5.2	8	-0.6
22	COc1cc2[nH]c(-c3cccc(F)c3)cc(=O)c2cc1OC	8.7%	-1	57	-7.2	3	0.1
23	CCCSc1nc2c(=O)[nH][nH]c(=O)c2n1Cc1ccccc1	-1.3%	3	-4	1.0	-4	0.2
24	COc1cc2c(cc1OC)CN(Cc1ccccc1)CC2	-2.4%	0	-2	-2.6	-1	0.1
25	COc1ccc(NC(=O)c2ccc3c(SCC(=O)O)c4c(nc3c2)CCC4)c(OC)c1	1.6%	.	-19	.	.	-0.9
26	CCOc1cc(/C=N/NC(=O)C(C)Sc2ccccc2)ccc1O (configuration not stated)	1.3%	-25	9	-4.7	-27	-0.4
27	Cc1ccc(CCNC(=O)C2CCC(=O)N2C2CCCC2)cc1 (configuration not stated)	?	1	22	-1.6	1	0.7
28	CN[C@H]1C[C@H]2c3[nH]c4ccc(-c5cccc(C)c5)cc4c3CCN2C[C@H]1[C@H](C)O	-0.8%	-17	3	-6.5	-24	-0.3
29	COCCNC(=O)CN(c1ccc(C)cc1)S(=O)(=O)c1ccc(SC)cc1	-2.4%	4	-14	-2.0	5	-1.1
30	O=C(Nc1ccccc1C(F)(F)F)N1CCC(N2CCCCC2)CC1	-0.7%	0	7	-3.7	0	4.0
31	COC(=O)c1ccc(NC(=O)Nc2ccc(OC)cc2)cc1	-1.0%	-14	2	1.9	2	0.8
32	O=C(O)COn1c(-c2ccccc2)nc2ccc([N+](=O)[O-])cc21	-2.1%	-8	-3	-3.8	-6	-0.2
33	Cc1cc(NS(=O)(=O)c2ccc(NC(=O)C(C)Oc3ccc4c(C)cc(=O)oc4c3)cc2)no1 (configuration not stated)	1.3%	-14	-10	-0.2	-26	-0.7
34	O=C(NCCc1cccnc1)c1cc(COc2ccc(F)cc2Cl)on1	3.0%	0	-9	-0.6	-8	1.4
35	CC1(C(=O)NS(=O)(=O)c2cccc(Cl)c2)CCN1C(=O)CC1CCCCC1 (configuration not stated)	1.1%	1	.	-2.5	3	-0.2
36	Cc1cc(=O)oc2c(CN3CCCCC3)c(O)c(Cl)cc12	-0.7%	3	-7	-1.9	-1	-1.5
37	Cc1cc(Cl)c(S(=O)(=O)Nc2cccc(O)c2)cc1OCC(N)=O	-2.3%	4	0	0.4	7	1.0
38	CC(C)CN(C(=O)C1CCCO1)c1c(N)n(CC(C)C)c(=O)[nH]c1=O (configuration not stated)	2.9%	13	-12	-5.4	4	-0.1
39	O/N=C(\CN1CCCCC1)c1ccccc1	1.6%	7	4	-3.9	2	-1.7
40	COC(=O)N/N=C/c1ccc(-c2cc(Cl)cc(Cl)c2)o1	5.5%	-1	-18	-5.2	-6	-1.5
41	N#Cc1c(/N=C/c2ccco2)sc2c1CCCCC2	-0.8%	?	30	5.9	?	0.4
42	CC(C)(C)OC(=O)N1CCC(c2c(C(=O)NCC3CCN(C4CCCC4)C3)cnn2-c2ccccc2)CC1 (configuration not stated)	0.4%	-3	-9	-3.9	-5	1.0
43	COc1ccc(C(=O)Nc2nc3nc(-c4ccccc4)cc(=O)n3[nH]2)cc1	1.0%	-8	-11	-0.4	-17	-0.5
44	c1ccc(-n2ncc3c2ncn2cnnc32)cc1	-0.3%	-2	-13	0.5	-6	2.7
45	Cc1cc(C)n2nc(SCC(=O)c3cc(C)n(-c4cc(C)on4)c3C)nc2n1	?	-24	-20	-0.2	-11	0.5
46	COc1ccc(NC(=O)c2c(-c3ccccc3)c(-c3ccccc3)nn(C)c2=O)cc1OC	-0.5%	.	-25	.	.	1.3
47	CCCOc1ccc(C(C(=O)OCCN(CC)CC)c2ccccc2)cc1 (configuration not stated)	10%	-1	-5	-2.3	-15	-0.7
48	Cc1cc([N+](=O)[O-])c(C)cc1-c1ccc(/C=N/NC(=O)Cn2nnnc2N)o1	1.3%	-2	8	-4.0	-1	0.1
49	O=C(Nc1nnc(S(=O)(=O)N2CCOCC2)s1)c1ccc(F)cc1	0.1%&-0.9%	7	-15&17	-4.7	2	-0.1&-0.7
50	NC(=O)NC(=O)COC(=O)c1sc2ccccc2c1Cl	-1.0%	9	.	-5.9	6	.
51	Cc1ccc2nc(-c3ccccc3F)c(Nc3ccc(Cl)cc3)n2c1	5.2%	.	75	.	.	4.2
52	COc1ccc(N2CCN(Cc3nnnn3C3CCCCC3)CC2)cc1	0.7%	2	-19	2.4	8	0.3
53	CC1CCCCC1NC(=O)c1ccc(-n2cncn2)c([N+](=O)[O-])c1 (configuration not stated)	-1.0%	3	4	-4.2	2	-0.2
54	COc1cc(C(=O)OCC(=O)N(C)c2ccccc2)cc(OC)c1OC	1.8%	17	28	-1.7	3	-0.5
55	N#CC(C#N)=Cc1ccc(-c2ccc(S(=O)(=O)N=C(N)N)cc2)o1	-0.2%	-10	28	0.9	-18	1.2
56	Cc1nc(C)c(-c2ccc(SCC(=O)Nc3ccc(C)c(Cl)c3)nn2)s1	7.2%	-3	1	0.0	-4	-0.6
57	O=C(COc1ccccc1Cl)N1CCCC1	-2.1%	-1	-8	-0.9	1	-0.3
58	COc1ccc(CNC(=O)CCNS(=O)(=O)c2ccc(C)cc2)cc1	-0.4%	-1	9	-1.7	1	-0.8
59	O=C(CCCN1C(=O)/C(=C/c2ccccc2Cl)SC1=S)Nc1ccccn1	-3.6%	4	27	-2.0	-12	0.9
60	CCCCN1C(=O)NC(NC(C)=O)(C(F)(F)F)C1=O (configuration not stated)	1.6%	-1	-11	-1.7	0	-1.2

(list continues)
cpd	Molecule	PINK1 expr mod	CtBP-E1A blk	TRPML1 inh	D2 ag	Six1-Eya2 blk	TRPML1 agonist
61	CCOC(=O)CN(c1cccc(C(C)=O)c1)S(C)(=O)=O	-4.9%[38.3 µM]	-4	-6	0.0	2	0.6
62	CN(C)c1ccc(CNC(=O)c2cnc3sc(N4CCCCCC4)nn3c2=O)cc1	0.3%	.	-11	.	.	1.0
63	Cc1cccnc1Oc1ncccc1N	1.7%	9	17	-2.3	1	4.6
64	COCCNC(=S)N1CCN(c2nc(-c3ccc(F)cc3)cs2)CC1	2.2%	-2	12	-5.5	-6	0.6
65	COc1ccc(Br)cc1CN(C)CC(=O)NCCc1ccc(S(N)(=O)=O)cc1	-0.3%	-12	-10	-4.5	-2	-1.5
66	O=C(Nc1ccc2nsnc2c1)N1CCCCC1	4.1%	9	2	-2.1	4	0.5
67	CC(C)NCCOCCOc1ccc(Cl)cc1Br	2.1%	7	14	-3.1	5	1.2
68	Cc1ccc(C)c(C(=O)OCC(=O)Nc2ccc(N3CCOCC3)cc2)c1	9.3%	-19	4	-4.2	5	-0.6
69	COc1ccc(OCc2cc(C(=O)N3CCCCCCC3)no2)c(Cl)c1	2.5%	14	11	0.7	6	1.2
